KCNQ2 inh – KCNQ2 potassium channel inhibitors, primary screen, cell-based, CHO-K1, FluxOR thallium flux, B-score (AID 2156). O88943. B-score at 10 µM. 310,000 compounds, 1.1% hits. 20 min; hits give low values; only compounds with negative scores are shown here; some inactives read as strong as hits;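 active = fluorescence ratio B-score at most minus 3 library SDs, with starting brightness B-score within 2 library SDs, cut at about -5.5 in these data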
Target sequence (O88943 whole entry, looked up): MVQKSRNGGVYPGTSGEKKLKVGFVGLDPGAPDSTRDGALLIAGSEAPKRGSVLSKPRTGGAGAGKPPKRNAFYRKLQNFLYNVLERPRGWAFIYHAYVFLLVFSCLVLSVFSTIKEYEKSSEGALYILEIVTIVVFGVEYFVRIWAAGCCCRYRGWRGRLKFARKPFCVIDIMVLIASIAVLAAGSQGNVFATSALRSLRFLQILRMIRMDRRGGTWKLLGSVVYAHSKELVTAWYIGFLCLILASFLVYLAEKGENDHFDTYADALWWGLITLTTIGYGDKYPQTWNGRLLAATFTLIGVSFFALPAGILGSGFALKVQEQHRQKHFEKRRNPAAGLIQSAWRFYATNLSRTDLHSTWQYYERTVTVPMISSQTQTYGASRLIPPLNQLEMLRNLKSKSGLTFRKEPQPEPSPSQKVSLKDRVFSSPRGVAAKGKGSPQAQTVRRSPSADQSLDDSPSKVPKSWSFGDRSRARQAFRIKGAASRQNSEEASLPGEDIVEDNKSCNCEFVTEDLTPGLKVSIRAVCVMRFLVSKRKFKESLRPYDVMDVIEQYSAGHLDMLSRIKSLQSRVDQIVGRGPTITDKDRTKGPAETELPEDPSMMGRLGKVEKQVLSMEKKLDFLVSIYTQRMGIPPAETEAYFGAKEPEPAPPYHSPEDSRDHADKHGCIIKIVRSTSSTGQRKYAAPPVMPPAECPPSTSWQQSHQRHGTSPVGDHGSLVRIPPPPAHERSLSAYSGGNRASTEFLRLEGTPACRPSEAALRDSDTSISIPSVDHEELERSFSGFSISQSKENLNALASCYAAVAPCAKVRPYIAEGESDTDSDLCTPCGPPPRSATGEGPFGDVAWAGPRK
KCNQ2 inh baseline – also measured in KCNQ2 inh; calls as there; B-score; measured here: initial fluorescence intensity artifact check;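 brightness before thallium and not channel activity; 0 = typical well and far values either way flag optical interference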
Active calls of the source: *; i = inactive. This is a subset (hit frequency here may not be typical).

SMILES	KCNQ2 inh	KCNQ2 inh baseline
COc1ccc(C2NC(=S)N3C(c4ccc(OC)cc4)NC(=S)N23)cc1 (stereo not given)	i	-1.4
Cc1ccccc1C(=O)NCC(c1ccco1)N1CCc2ccccc2C1 (stereo not given)	i	0.12
COc1ccc(NC(=O)NNC(=O)COc2ccc3cc(Br)ccc3c2)cc1	i	0.45
O=C(Nc1ccccc1C(=O)N1CCCCCC1)c1cccc(S(=O)(=O)N2CCOCC2)c1	i	0.67
O=S(=O)(c1cccc2nsnc12)N1CCN(c2ccc(F)cc2)CC1	i	0.2
Cc1nc2ccccc2nc(C)c1=NOCc1ccccc1Cl	i	0.13
CCC1CN(C(=O)NCc2ccccc2)c2ccccc2O1 (stereo not given)	i	-1
CC(=O)c1ccc(N2CCN(CC(=O)Nc3ccc(N4CCOCC4)cc3)CC2)cc1	i	-1.5
CN(CC(=O)Nc1ccccc1Cl)CC(=O)Nc1c(F)cccc1F	i	0.01
O=C(COC(=O)/C=C/c1ccc(Cl)cc1)NCCC1=CCCCC1	i	2.5
c1ccc(-c2cn3nc4c(nc3n2)CCCC4)cc1	i	11
C/C(=N\OCC(=O)OCC(=O)NCc1ccccc1)c1ccc2c(c1)OCO2	i	0.48
CC(OC(=O)CNC(=O)c1ccc2ccccc2c1)C(=O)N(C)C1CCCCC1 (stereo not given)	i	1.5
Cc1ccc(S(=O)(=O)NCc2nc3nc(C)cc(C)n3n2)c(C)c1	i	0.78
Cn1cnnc1SCC(=O)Nc1ccccc1C(=O)NC1CC1	i	1.2
COC(=O)c1c(-c2c(Cl)cccc2Cl)noc1NC(=O)NN1CCOCC1	i	-1.2
O=C(c1ccc(Cl)c(S(=O)(=O)N2CCCCC2)c1)N1CCN(Cc2ccccc2)CC1	i	-0.92
CC(OC(=O)Cc1ccccc1[N+](=O)[O-])C(=O)NC(=O)NC1CCCCC1 (stereo not given)	i	-0.01
N#C/C(=C\c1ccccc1)C(=O)Nc1cccnc1	i	0.29
COc1ccc(-c2cc3c(=O)n(CC(=O)NCc4ccc(F)cc4)ncn3n2)cc1	i	-0.33
CCOC(=O)c1cc2nc(Nc3ccc(OC)cc3)sc2s1	i	-0.03
CCc1nnc(NC(=O)CSc2nnc(-c3ccccc3O)n2CC)s1	i	-1.4
OCCCc1nc2n(n1)C(c1ccccc1Cl)C=C(c1cccs1)N2 (stereo not given)	i	3.4
CC1CCN(C(=O)CSc2nnc(CNC(=O)COc3ccc(Cl)cc3)o2)CC1	i	-0.17
Cc1ccc2c(c1)NC(=O)C(CC(=O)NCCCN1CCN(c3cc(C)ccc3C)CC1)O2 (stereo not given)	i	1.9
COCCSc1nnc(NC(=O)C2CC(=O)N(C3CCCC3)C2)s1 (stereo not given)	i	1.3
O=c1oc(Cc2ccccc2)nc2ccccc12	i	-0.24
O=C(Cn1ncc2c([nH]c3ccccc32)c1=O)NCCCN1CCN(c2ccccc2)CC1	i	0.15
O=C(c1cc(-c2cccs2)nc2ccccc12)N1CCN(S(=O)(=O)c2cccc(F)c2)CC1	i	1.4
O=C(O)c1cc(O)c2c(c1)C(=O)c1cc(O)cc(O)c1C2=O	i	1.2
CNC(=O)Nc1cc(C(F)(F)F)cc(C(F)(F)F)c1	i	1.8
COc1ccc(OC)c(C(C(=O)NC2CCCCC2)N(C(=O)c2snc(C(N)=O)c2N)c2ccccc2OC)c1 (stereo not given)	i	-0.78
Cc1ccc2c(c1)C(SCC(=O)NCCc1ccccc1)CC1(CCCC1)O2 (stereo not given)	i	0.24
S=c1[nH]nc(COc2ccc(Cl)cc2)n1Cc1ccco1	i	1
CCCCOCCCNC(=O)c1ccc(NC(C)=O)cc1	i	-0.25
COc1ccc(CSc2nncn2N)cc1Br	i	1.8
Cc1ccc(NC(=O)C(Nc2ccccc2)c2ccccc2)cc1 (stereo not given)	i	1.2
CN(C)c1ncc(S(=O)(=O)c2ccc(Cl)cc2)c(-c2ccc(Cl)cc2Cl)n1	i	0.17
Cc1ccc2nc(NC(=O)[C@H](C)N3C(=O)C4CC=CCC4C3=O)sc2c1 (stereo not given in full)	i	-0.41
O=C(CSc1nc2ccccc2[nH]1)NC1CCCc2ccccc21 (stereo not given)	i	2.5
CCCc1nnc(SCC(=O)Nc2cccc(Cl)c2Cl)o1	i	2.9
O=C(CN(C(=O)CCC(=O)Nc1nccs1)C1CCCC1)NCc1ccc2c(c1)OCO2	i	0.07
COc1cc(-c2ccc(NC(=O)CN3CCC(C)CC3)c(OC)c2)ccc1NC(=O)CN1CCC(C)CC1	i	-0.35
O=C(CSc1nc2ccccc2s1)N1N=C(c2cccs2)CC1c1ccc(F)cc1 (stereo not given)	i	0.31
CCn1c(SCC(=O)Nc2ccc(F)cc2)nnc1C1CC1	i	2.2
O=C(CN(C1CCCCC1)S(=O)(=O)c1ccc(Br)cc1)NCc1ccncc1	i	0.59
COc1cccc(OCc2cc(C(=O)N3CCN(C4CCCC4)CC3)no2)c1	i	-1.2
CC(=O)c1ccc(Cc2ncc(C(F)(F)F)cc2Cl)s1	i	2.1
COc1cccc(C(=O)Oc2cccc(N3C(=O)C4C5CC(C(Br)C5Br)C4C3=O)c2)c1 (stereo not given)	i	-2.3
CC(=O)c1ccccc1OCC(O)CN1CCN(CCN2C(=O)c3cccc4cccc(c34)C2=O)CC1 (stereo not given)	i	-0.98
O=C(CCCCCNC(=O)c1ccccc1)N/N=C/c1ccc(O)cc1O	i	-1.3
Cc1cc(C)c(C(=O)N2CCCC(CNS(=O)(=O)N(C)C)C2)o1 (stereo not given)	i	1.4
CC1CCN(c2nnc(N3CCC(C)CC3)c3ccccc23)CC1	i	0.8
COc1cccc(C(=O)NC(=S)Nc2ccc3[nH]c(=O)[nH]c3c2)c1	i	-0.41
O=[N+]([O-])c1ccc(O)c(/C=N/Nc2ccccc2Cl)c1	i	-1.9
COc1ccccc1C1CC(=O)Nc2c1c(=O)n(C)c(=O)n2C (stereo not given)	i	-1.6
C=C1CCN([C@@H](CC(C)C)C(=O)NCc2ccccc2)S(=O)(=O)c2ccccc21	i	0.19
COc1cccc(CN(C(=O)COc2ccc(C)cc2)C2CCS(=O)(=O)C2)c1 (stereo not given)	i	1.9
O=C(O)C1C2CCC(O2)C1C(=O)NCc1ccccc1Br (stereo not given)	i	2.5
CCC(=O)N1CCc2cc(S(=O)(=O)CCC(=O)N3CCN(c4ccccc4F)CC3)ccc21	i	1.2

More structures:
SMILES	KCNQ2 inh	KCNQ2 inh baseline
Cc1ccc(C)c(S(=O)(=O)N2CCCOC2CNC(=O)C(=O)NCCN2CCOCC2)c1 (stereo not given)	i	-0.89
COc1ccc(OC)c(C2C(C(=O)c3ccc(C)o3)=C(O)C(=O)N2CCN2CCOCC2)c1 (stereo not given)	i	-0.52
Cc1cc(C)n(-c2ncc3c(n2)N(CCO)CCOC3=O)n1	i	-1.6
O=C(Cc1nc2ccccc2[nH]1)c1ccc(Br)cc1	i	-0.72
CCC(=O)N(Cc1ccco1)c1nc(C(=O)Nc2ccc(Cl)cc2)c(C)s1	i	1.5
CN(C)C(CNC(=O)c1ccc(S(=O)(=O)N(C)C)cc1)Cc1ccccc1 (stereo not given)	i	-3.4
COC(=O)C1CCCCN1C(=O)c1ccc2oc(C(C)C)nc2c1 (stereo not given)	i	-0.88
O=C(CSc1nnc(Cn2c(=O)sc3ccccc32)n1-c1ccccc1)Nc1nccs1	i	-2
Cn1nnnc1SCCNC(=O)C1CCC(=O)N(CCc2cccc(F)c2)C1 (stereo not given)	i	-1.3
Cc1ccc(NS(=O)(=O)c2ccc3c(c2)n(C)c(=O)n3C)cc1C	i	1.2
COC(=O)COc1cccc(/C=N/NC(=O)CCSc2ccccc2)c1	i	0.06
CC1(C(=O)NCc2ccc(Cl)c(Cl)c2)Oc2ccccc2NC1=O (stereo not given)	i	-1.1
CC1CCN(c2nc(NCc3ccco3)nc(N)c2[N+](=O)[O-])CC1	i	1
Clc1ccccc1CSc1cc2c(nn1)-c1ccccc1CC2	-8.1*	-0.5*
CC(C)NC(=O)C1CCN(C2CCN(Cc3nc(C(C)C)cs3)CC2)CC1	i	2
COc1ccc(N2CCN(C(=O)c3cccn4c(=O)c5ccccc5nc34)CC2)cc1	i	-0.82
O=[N+]([O-])c1cc([N+](=O)[O-])c(Oc2c(Cl)cccc2Cl)cc1NN1CCCCC1	i	-1.6
COc1ccccc1N1CCN(C(c2cc3cc(C)ccc3[nH]c2=O)c2nnnn2C2CCCC2)CC1 (stereo not given)	i	-1.6
OC(CN1CCN(Cc2ccc3c(c2)OCO3)CC1)c1c[nH]c2ccccc12 (stereo not given)	i	0.46
COc1cc(C)ccc1NC(=O)Cc1csc(NC(=O)Nc2ccccc2OC)n1	i	-3

Copied from the listing, 17 compounds:
SMILES	KCNQ2 inh	KCNQ2 inh baseline
O=C(Cc1nc2ccccc2[nH]1)c1ccc(Br)cc1	i	-0.72
CCC(=O)N(Cc1ccco1)c1nc(C(=O)Nc2ccc(Cl)cc2)c(C)s1	i	1.5
CN(C)C(CNC(=O)c1ccc(S(=O)(=O)N(C)C)cc1)Cc1ccccc1 (stereo not given)	i	-3.4
COC(=O)C1CCCCN1C(=O)c1ccc2oc(C(C)C)nc2c1 (stereo not given)	i	-0.88
O=C(CSc1nnc(Cn2c(=O)sc3ccccc32)n1-c1ccccc1)Nc1nccs1	i	-2
Cn1nnnc1SCCNC(=O)C1CCC(=O)N(CCc2cccc(F)c2)C1 (stereo not given)	i	-1.3
Cc1ccc(NS(=O)(=O)c2ccc3c(c2)n(C)c(=O)n3C)cc1C	i	1.2
COC(=O)COc1cccc(/C=N/NC(=O)CCSc2ccccc2)c1	i	0.06
CC1(C(=O)NCc2ccc(Cl)c(Cl)c2)Oc2ccccc2NC1=O (stereo not given)	i	-1.1
CC1CCN(c2nc(NCc3ccco3)nc(N)c2[N+](=O)[O-])CC1	i	1
Clc1ccccc1CSc1cc2c(nn1)-c1ccccc1CC2	-8.1*	-0.5*
CC(C)NC(=O)C1CCN(C2CCN(Cc3nc(C(C)C)cs3)CC2)CC1	i	2
COc1ccc(N2CCN(C(=O)c3cccn4c(=O)c5ccccc5nc34)CC2)cc1	i	-0.82
O=[N+]([O-])c1cc([N+](=O)[O-])c(Oc2c(Cl)cccc2Cl)cc1NN1CCCCC1	i	-1.6
COc1ccccc1N1CCN(C(c2cc3cc(C)ccc3[nH]c2=O)c2nnnn2C2CCCC2)CC1 (stereo not given)	i	-1.6
OC(CN1CCN(Cc2ccc3c(c2)OCO3)CC1)c1c[nH]c2ccccc12 (stereo not given)	i	0.46
COc1cc(C)ccc1NC(=O)Cc1csc(NC(=O)Nc2ccccc2OC)n1	i	-3

Following part:
SMILES	KCNQ2 inh	KCNQ2 inh baseline
O=C(NNC(=S)NC(=O)c1ccccc1[N+](=O)[O-])c1ccc(Cl)cc1Cl	i	-0.01
O=C(NNc1c(Cl)cc(Cl)cc1Cl)c1cccc([N+](=O)[O-])c1	i	-0.1
Fc1ccccc1Nc1nc(-c2ccncc2)nc2ccccc12	i	-1.4
CC1(C)CC2CC(C)(CN2C(=O)Cc2ccccc2)C1 (stereo not given)	i	2.2
COc1ccc(NC(=O)CSc2nc(O)cc(=O)n2C)cc1	i	1.6
COc1cc(/C=N/NC(=O)c2ccc3c(c2)OCO3)ccc1O	i	-0.49
COCCn1nnnc1C(c1cc2ccc(OC)cc2[nH]c1=O)N1CCN(C2CCCCC2)CC1 (stereo not given)	i	-1.9
CSc1nnnn1-c1c(C)cccc1C	i	0.78
O=C(Nc1cccnc1)c1sc(Nc2ccccc2F)nc1-c1ccccc1	i	-0.08
Brc1ccc2nc(N3CCCC3)sc2c1	i	0.56
CCC1CCCCN1CCCNC(=O)c1ccc2c(c1)NC(=O)CS2 (stereo not given)	i	-0.99
CC(C)c1nnc(NC(=O)CCC(=O)Nc2ccc3cn[nH]c3c2)s1	i	0.14
CCc1ccc(-c2cc(C)no2)cc1S(=O)(=O)Nc1cc(C)ccn1	i	-0.01
CCC1(CC)Cc2ccccc2C(C2=C(O)CC(C)(C)CC2=O)=N1	i	0.62
Cc1cc(NC(=O)C(C)SCC(=O)Nc2ccccc2C(C)(C)C)no1 (stereo not given)	i	1.2
CCOC(=O)c1c(CSC(=N)N)n(-c2ccc(C)cc2)c2cc(Br)c(OC(C)=O)cc12	i	3
O=C(NCc1cccnc1)C(=O)Nc1cc2c3c(c1)CC(=O)N3CCC2	i	-0.01
COC(=O)C1C(=O)c2c([nH]c(C(=O)OC3CCCCCC3)c2C)CC1C (stereo not given)	i	0.84
CN(Cc1ccccc1)S(=O)(=O)c1nnc(NC(=O)c2ccc(F)cc2)s1	i	0.02
CSc1ccc(C(=O)C2CCCN(C(=O)c3cc(C)n(C)n3)C2)cc1 (stereo not given)	i	-2.1
CC(=O)C1=C(c2ccccc2)OC(N)=C(C#N)C1c1ccccc1F (stereo not given)	i	0.75
C=CCNC(=O)CN(c1ccc(F)c(Cl)c1)S(C)(=O)=O	i	-0.02
CCOc1ccc(-n2c(SCC(=O)Nc3ccc(OC)cc3)nc3c(c2=O)SCC3)cc1	i	1.4
O=C(c1ccc(S(=O)(=O)N2CCCCC2)cc1)N1CCN(c2ccccc2F)CC1	i	0.62
CCOc1ccc(/C=C2\SC(=S)N(CCC(=O)Nc3ccc(C(=O)O)cc3)C2=O)cc1	i	1.5
Cc1ccc(C)c(NC(=O)CCC(=O)N/N=C2/CC(=O)CC(C)(C)C2)c1	i	1.2
COC(=O)c1cc(S(=O)(=O)NCCc2ccc(SC)cc2)c[nH]1	i	1.2
NS(=O)(=O)c1cccnc1Nc1ccc(Cl)c(Cl)c1	i	-0.37
CC1CCN(c2ccc3nnc(CCC(=O)NCCCOC(C)C)n3n2)CC1	i	0.01
COc1ccc(/C=N/c2nc3ccccc3n2C)cc1OC	i	-0.62
N/C(=N\c1nc2c(c(=O)[nH]1)CCCC2)Nc1ccccc1Sc1ccccc1	i	0.09
Cc1ccc(NC(=S)Nc2nc(CC(=O)Nc3ccccc3)cs2)cc1	i	0.47
CC1CC2=C(NC(=S)NC2c2ccccc2F)/C(=C/c2ccccc2F)C1 (stereo not given)	i	-0.19
COC(=O)C1CCCN1C(C(=O)NC1CCCCC1)c1ccc(Cl)cc1 (stereo not given)	i	-0.12

An excerpt of these results, with values under each structure.
Below each compound – KCNQ2 inh	KCNQ2 inh baseline
COc1cccc(C(=O)NC(=S)Nc2ccc3[nH]c(=O)[nH]c3c2)c1
→ i	-0.41
O=[N+]([O-])c1ccc(O)c(/C=N/Nc2ccccc2Cl)c1
→ i	-1.9
